Compound activity deposited in PubChem BioAssay by National Center for Advancing Translational Sciences (NCATS).
nsP2pro inh = blocks chikungunya virus nsP2 protease peptide cleavage; Q8JUX6; FRET peptide cleavage, nsP2pro, fluorescence 1 h; AID 1964107; Potency, µM (doses to about 24.9 µM), for inactives: at the top dose activity change, negative = inhibition, actives largely listed as inhibitors; 31,000 tested, 1.1% active; active means well fitted inhibition curve with a large enough effect; inconclusive means small, poorly fitted or top-dose-only effect; inactive means no such curve, though single readings can be large or run the other way; further: nearly all actives have a fitted effect of over 60% in size; a reference inhibitor and vehicle were the controls
* marks the source's active call; other numbers are inactive results; i = inactive; u = inconclusive; & = joins results of further samples; [ ] = dose if it differs, or a comment. On the % scale 0 is the no-effect control and ±100 the full control effect; potency means the concentration at half of the fitted maximal effect.

SMILES	nsP2pro inh
COc1ccc(C)cc1NC(=O)CN1CCN(CC(=O)Nc2ccccc2F)CC1	-33.9%
CCCN1C(=O)CN(C2CCCCC2)C(=O)C1c1ccc(OC)c(OC)c1 (configuration not stated)	-10.6%
O=C(C1CCCN(S(=O)(=O)c2cccc3nonc23)C1)N1CCN(c2ccccc2Cl)CC1 (configuration not stated)	-17.3%
CCC[C@H](NC(=O)/C(C#N)=C/c1cccc(Br)n1)c1ccccc1	-29.8%&-15.0%
CCC(Sc1nc2cc3c(cc2c(=O)n1CCCC(=O)NCc1ccc2c(c1)OCO2)OCO3)C(=O)NCCCOC (configuration not stated)	-16.9%
Cc1cccc(-c2nc3scc(CCNC(=O)c4ccc(Br)o4)n3n2)c1	-11.2%
CCCCCC(=O)N1C[C@H](C(=O)NC)[C@H]2c3ccccc3N(CC3CC3)C(=O)[C@]21C	-11.7%[10 µM]
Cc1ccsc1CN1CCc2nc(N3CCN(c4ccccc4F)CC3)ncc2C1	-20.3%
CC1=CC(=O)c2ccccc2C1=O	u
CCOC(=O)c1csc(NC(=O)c2ccncc2NS(=O)(=O)c2ccc(C)cc2)n1	i
CN(C)CCNC(=O)C1CNCC12CCOCC2 (configuration not stated)	0.4%
C=C(C)[C@H]1CC[C@]2(C(=O)O)CC[C@]3(C)C(CCC4[C@@]5(C)CCC(=O)C(C)(C)C5CC[C@]43C)C12 (some centres not stated)	23.6%[10 µM]
CCc1ccccc1NS(=O)(=O)c1ccc(OC)c2ncccc12	-16.1%
O=C(C1CC1)N1CC[C@@H](Cn2c(-c3ccc(-c4ccc5occc5c4)cc3)nc3cnccc32)C1	0.4%
Cc1cc(-c2cc(C(=O)NCc3c(C)cc(C)[nH]c3=O)c3c(c2)ncn3C)ccn1	0.2%[39.2 µM]
Cc1cccc(-c2nnc(C)n2CCCn2ccnc2)c1N	-12.4%
Cc1ncccc1-c1nc2cc(C(=O)NCc3ccccc3F)ccc2o1	0.3%[39.2 µM]
CCS(=O)(=O)N1CCCC(C(=O)NCCOC)C1 (configuration not stated)	-10.9%
CC(C)NC(=O)N1CCN(S(=O)(=O)c2ccc3c(ccn3C)c2)CC1	-1.3%
CCC1=C(c2ccc(C)cc2)S(=O)(=O)N=C1N1CCC(C(=O)NCc2ccccc2Cl)CC1	-16.6%
CCc1cccc(NC(=O)Cn2cc(C(=O)c3ccncc3)c(=O)c3cc(C)c(C)cc32)c1	40.6%[activator]
O=C1Nc2ccc(C(=O)c3ccco3)cc2/C1=C/c1cc(Cl)c(O)c(Cl)c1	i
CN(CC(=O)Nc1cccc(N2CCOCC2)c1)Cc1c(O)ccc2ccccc12	u
CN(C)CC1CCn2c(c(C3=C(c4cn(C)c5ccccc45)C(=O)NC3=O)c3ccccc32)C1 (configuration not stated)	26.8%
c1c[nH]c(C2CCN(c3ncc(-c4ccc5c(c4)OCCCO5)s3)CC2)n1	-6.2%
Cc1c(C)n(Cc2ccc(Cl)cc2)c2ccc(C(=O)NCCc3ccc(S(N)(=O)=O)cc3)cc12	4.7%
O=C(c1cc2cc(F)ccc2[nH]1)N1CCCC(CO)(Cc2cccc(Cl)c2)C1 (configuration not stated)	-12.2%
COc1cc2c3cc1Oc1cc(ccc1O)C[C@@H]1c4c(cc(OC)c(O)c4Oc4ccc(cc4)C[C@@H]3N(C)CC2)CC[N+]1(C)C	7.4%
O=C(Nc1nc(-c2ccccc2)cs1)c1ccncc1NS(=O)(=O)c1ccc(-c2ccccc2)cc1	i
CN(Cc1cccn1C)C(=O)c1ccc(Cl)nc1	u
CCc1cc(C(=O)N2CCOCC2CC(=O)N2CCSCC2)cs1 (configuration not stated)	4.5%
COC(=O)c1cccc(Nc2nn3c(=O)c4cc5c(cc4nc3s2)OCO5)c1	-15.4%
O=C(NCC1CC1)c1cccc(OC2CN(Cc3cc4ccccc4nc3Cl)C2)c1	i
NC1CCCCN(Cc2ccc(Cl)c(F)c2)C1 (configuration not stated)	2.0%
CC1COC2(c3ccccc3Cl)c3cc(Cl)ccc3NC(=O)CN12 (configuration not stated)	1.1%
CCC(C)(C)OC(=O)N[C@@H](Cc1c[nH]c2ccccc12)C(=O)N[C@@H](CCSC)C(=O)N[C@@H](CC(=O)O)C(=O)N[C@@H](Cc1ccccc1)C(N)=O	-6.9%
Cc1cn(C[C@H](N)C(=O)O)c(=O)n(Cc2ccsc2C(=O)O)c1=O	-10.4%
Cc1c(C(=O)Nc2nc(-c3ccc(F)cc3)ns2)oc2ccc(Br)cc12	-17.3%
Cc1cnc(-c2ccccc2C(C)C)nc1N(C)Cc1ccc(-c2cccnc2)cc1	i
CN(C)CCN(Cc1ccc(Cl)cc1)c1ccccn1	-6.1%
CN(Cc1ccccc1)C(=O)CCc1nc(C2CCCN2C(=O)C2CCC2)no1 (configuration not stated)	-8.9%
CCSc1ncc(Cl)c(C(=O)Nc2c(C(=O)Nc3ccc(Cl)cc3)oc3ccccc23)n1	-14.3%
O=C(Nc1ccc(F)c(F)c1)C1CCCN1S(=O)(=O)c1cccc2nsnc12 (configuration not stated)	-14.7%
COc1ccc(CCC(=O)O)c(O[C@@H]2O[C@H](CO)[C@@H](O)[C@H](O)[C@H]2O)c1	-4.7%
Cc1cccc(Cn2c(SCc3ccc(C(=O)NCc4ccccc4F)cc3)nc3cccnc32)c1	13.7%
CNc1c(NC(=O)c2cc(OC)cc(OC)c2)c(=O)oc2ccccc12	u
C=C(C)C1CC=C(C)CC1 (configuration not stated)	-4.3%[39.2 µM]
OC[C@@H](O)C(O)[C@H](O)CO	-5.9%
O=C(Nc1nc2n(n1)C(c1ccc(F)cc1)C=C(c1ccc(Cl)cc1)N2)c1ccco1 (configuration not stated)	-26.5%
CC(=O)c1c(C)cccc1O[C@@H]1O[C@H](CO)[C@@H](O)[C@H](O)[C@H]1O	64.1%
N#Cc1ccc(-c2ccc(CNc3ccc(N4CCC(C(F)(F)F)CC4)cc3)o2)cc1	2.82µM*
Cc1ccc(-n2nc(C(=O)Nc3ccc(C)c(F)c3)c(=O)n(C)c2=O)cc1	-15.0%
O=c1c2c(c1=O)N(CCP(=O)(O)O)CCCN2	u
COc1ccc(C)cc1NC(=O)Cn1nc(N2CCN(c3ccccc3OC)CC2)ccc1=O	-1.7%
Fc1cc(Nc2nc(-c3ccncc3)nc3ccccc23)ccc1OCC(F)(F)F	i
CC(=O)N[C@@H](CC(=O)O)C(=O)N[C@@H](CCC(=O)O)C(=O)N[C@H](C(=O)N[C@H](C=O)CC(=O)O)C(C)C	-9.0%
Cc1cc(NS(=O)(=O)c2ccc(NC(=O)Cc3ccc(Cl)c(C(F)(F)F)c3)cc2)no1	i
N#Cc1ccc(-c2ccc(CNc3ccc(C4CCNCC4)cc3)o2)cc1	-8.0%
CN(C)c1nc2c(c(N3C[C@H]4CNC[C@@]4(C(=O)O)C3)n1)CCCC2	-7.4%
CCCn1cc(C(=O)NC(C(=O)O)c2ccccc2C(F)(F)F)c(C)n1 (configuration not stated)	-4.4%
Continuation:
SMILES	nsP2pro inh
CSc1ncc(Cl)c(C(=O)N(C)c2ccccc2)n1	-9.4%
COc1ccc(-c2ccc3nc(-c4ccc(F)c(C)c4)oc3c2)c(OC)c1OC	-4.1%
CC1=Nc2cc(C(=O)NC3CCCCC3)ccc2Sc2ccc(Cl)cc21	-23.8%
COc1cccc(N2CC(NC(=O)c3ccc(S(=O)(=O)N4CCOCC4)cc3)CC2=O)c1 (configuration not stated)	-8.8%
Cc1ccc(NC(=O)Cn2c(=O)oc3cc(S(=O)(=O)N4CCCCC4)ccc32)c(C)c1	u
Cc1cc(NC(=O)c2cc(-c3ccc(Cl)cc3)on2)nn1Cc1ccc(Cl)cc1	-14.5%
O=C(NCc1nnc2n1C(C(=O)NCc1cccnc1)CC2)c1cccnc1 (configuration not stated)	u
Cc1ccc(CNc2ccc(N3CCNCC3)cc2)cc1	2.1%
COc1ccc(-c2ccc(CCC(=O)O)n2CC(=O)Nc2cccc(Cl)c2C)cc1	-23.5%
O=C(CC1CCN(S(=O)(=O)c2ccc(F)cc2F)C1)NCc1ccccc1 (configuration not stated)	-4.9%
O=C(O)CNC(=O)CNC(=O)CNC(=O)CSC(=O)c1ccccc1	-5.4%
CC(C)Nc1ncc(C(=O)NC2CCCN(CCc3ccccc3)C2)cn1 (configuration not stated)	4.2%
COc1ccc(-n2c(=O)c3c4c(sc3n(Cc3ccccc3C)c2=O)CCCC4)c(OC)c1	-6.4%
COc1ccc(C2Nc3ccccc3C(=O)N2Cc2ccco2)cc1COc1cccc(NC(C)=O)c1 (configuration not stated)	i
CC(=O)c1ccc(N2CCN(S(=O)(=O)c3ccc(-c4cc(C(F)(F)F)on4)s3)CC2)cc1	-12.0%
CCC(C)n1c(=N)c(S(=O)(=O)c2ccc(C)cc2)cc2c(=O)n3cc(C)ccc3nc21 (configuration not stated)	-8.6%
C=C1C(=O)OC2/C=C(\COC(C)=O)CC/C=C(\C=O)CC(OC(=O)C(C)CC)C12 (configuration not stated)	-2.7%[10 µM]
CCN(Cc1noc(C2CCC2)n1)C(=O)c1cc(C(C)C)n2ncnc2n1	2.6%
CCOC(=O)CNC(=O)c1cc2c(=O)oc3ccccc3c2s1	-12.6%
Cc1ccc(OCC(=O)N2CCN(CCc3ccncc3)CC2)cc1	-27.3%
COc1cccc(C(=O)Nc2ccc3nc(N4CCC(C)CC4)cc(C)c3c2)c1	7.7%
COc1cccc(C2=Nn3c(nnc3-c3ccccc3OC)SC2)c1	-0.2%
O=C1NC2(CCN(Cc3cncs3)C2)OCc2ccccc21 (configuration not stated)	-9.6%[39.2 µM]
O=C(CSc1nc2c([nH]c3ccccc32)c(=O)n1-c1cccc(Cl)c1)N1CCc2ccccc21	-14.5%
COc1ccc(C2c3c(ncn(CCN4CCOCC4)c3=N)Oc3ccc4ccccc4c32)cc1 (configuration not stated)	i
COc1ccc(-c2nc3ccccc3o2)cc1NC(=O)C(C)(C)Oc1ccc(Br)cc1	-18.2%
C=C(C)[C@@H]1CC[C@](C)(O)[C@@H](OC(=O)c2ccccc2)C1	1.9%
CCC1(N2CCN(C(=O)Cc3c[nH]c4ccccc34)CC2)CCN(S(C)(=O)=O)C1 (configuration not stated)	u
O=C(c1ccc(F)cc1)N1CCC(C(=O)N2CCCC(c3nc4ccncc4[nH]3)C2)CC1 (configuration not stated)	i
C=C1C(=O)OC2C1CCC1(C)C(O)CC=C(C)C21 (configuration not stated)	63.3%[activator]
C[C@@H]1O[C@@H](O[C@@H]2[C@@H](O)[C@@H](O)[C@H](O[C@@H]3[C@@H](O)[C@@H](O[C@]4(CO)O[C@H](CO)[C@@H](O)[C@@H]4OC(=O)/C=C/c4ccc(O)cc4)O[C@H](CO)[C@H]3OC(=O)/C=C/c3ccc(O)cc3)O[C@H]2C)[C@H](O)[C@H](O)[C@H]1O	-4.9%[5.1 µM]
COC(=O)c1c(SCC(=O)Nc2ccccc2C(F)(F)F)[nH]c2ccc(Cl)cc2c1=O	-18.4%
O=C(O)c1ccc(-n2cccc2/C=C2\SC(=O)N(Cc3cccc(Cl)c3)C2=O)cc1	i
COc1cc(O)c(C(CC(=O)N2CC(C)NC(C)C2)c2ccc3c(c2)OCO3)c(OC)c1 (configuration not stated)	-24.1%
O=C1Cc2cc(S(=O)(=O)N3CCN(c4ccc(O)cc4)CC3)ccc2N1	i
CC1CCN([C@@H]2[C@H](O)[C@H](CO)O[C@@H]2CNC(=O)c2ccc(F)c(Cl)c2)CC1	-10.8%
N#Cc1ccc2c(c1)N(CCCN1CCC(O)CC1)c1ccccc1S2	0.9%
CCCn1c(C)nc2c(N(C)CCN(C)C)nc(C)nc21	3.1%
COc1ccccc1-c1onc(C)c1C(=O)NCCc1cccc(Cl)c1	-6.1%
COc1cc2c(c(OC)c1OC)-c1c(cc3c(c1OC)OCO3)C[C@H](C)[C@@](C)(O)C2	7.3%
CCCNC(=O)N1CCC2(CC1)N(c1ccccc1)C(=O)CS2=O (configuration not stated)	-1.4%
CN(C)[C@@H]1CN(Cc2ccncc2F)CC[C@@H]1CNC(=O)C1CC1	-6.1%
COc1ccc(Cl)cc1NC(=O)C1CN(S(C)(=O)=O)CC12CCCCC2 (configuration not stated)	-0.5%
O=C(CSc1nc(-c2ccccc2)cn1-c1ccccc1)Nc1ccccc1	-12.8%
Cc1ccc2c(CC(=O)N(Cc3ccc(N(C)C)cc3)Cc3ccco3)coc2c1C	-12.0%
CC(C)C(=O)c1cn(CC(=O)COc2ccc(Oc3ccccc3)cc2)c2ccc(C(=O)O)cc12	15.0%
CC(CC=O)CCCC(C)(C)O (configuration not stated)	-1.5%
C=C(C)C1Cc2cc(C(=O)OC3OC(CO)C(O)C(O)C3O)ccc2O1 (configuration not stated)	71.6%[activator]
COc1cccc(C2c3c(ncn(-c4ccc(C(C)(C)C)cc4)c3=N)Oc3ccc4ccccc4c32)c1 (configuration not stated)	-5.8%
C=C1C(=O)OC2CC(C)C(CCC(C)O)=CCC12 (configuration not stated)	-7.9%
O=C(c1ccc(Nc2nccc(-c3cc4ccccc4s3)n2)cc1)N1CCC(N2CCCC2)CC1	74.9%[activator]

In a second layout: entries from further up.
Structure | nsP2pro inh
Cc1ccc2c(CC(=O)N(Cc3ccc(N(C)C)cc3)Cc3ccco3)coc2c1C | -12.0%
CC(C)C(=O)c1cn(CC(=O)COc2ccc(Oc3ccccc3)cc2)c2ccc(C(=O)O)cc12 | 15.0%
CC(CC=O)CCCC(C)(C)O (configuration not stated) | -1.5%

5 structures out of the list, sorted by molar mass, falling:
SMILES	nsP2pro inh
COc1ccc(Cl)cc1NC(=O)C1CN(S(C)(=O)=O)CC12CCCCC2 (configuration not stated)	-0.5%
CCC[C@H](NC(=O)/C(C#N)=C/c1cccc(Br)n1)c1ccccc1	-29.8%&-15.0%
COc1ccccc1-c1onc(C)c1C(=O)NCCc1cccc(Cl)c1	-6.1%
Cc1ccc(OCC(=O)N2CCN(CCc3ccncc3)CC2)cc1	-27.3%
CC1=CC(=O)c2ccccc2C1=O	u

A portion of the library, so the mix of outcomes need not match the whole.
